HPGD block = blocks human HPGD enzyme activity. P15428. Potency, µM, for inactives: at the top dose activity change, negative = inhibition, hits mostly inhibitors. 150,000 tested, 4.3% active. purified HPGD, NADH fluorescence kinetic, PGE2 substrate; active = well fitted inhibition curve with a large enough effect (not every such curve was filed as active); inconclusive = small, poorly fitted or top-dose-only effect, or another doubt; inactive = no such curve, though single readings can be large or run the other way;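 also: top concentration of the series not given in the record; plate controls included wells without enzyme; inactives centre near -10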
Target sequence (P15428 whole entry, looked up): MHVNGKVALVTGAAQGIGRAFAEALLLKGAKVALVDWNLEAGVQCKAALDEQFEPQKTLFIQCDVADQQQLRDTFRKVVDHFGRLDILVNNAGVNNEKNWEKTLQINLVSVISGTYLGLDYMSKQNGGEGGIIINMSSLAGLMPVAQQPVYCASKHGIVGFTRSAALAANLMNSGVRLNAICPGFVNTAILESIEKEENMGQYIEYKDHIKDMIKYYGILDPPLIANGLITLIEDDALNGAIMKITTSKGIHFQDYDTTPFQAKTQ
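NADH formation kinetics: reaction with 30 uM PGE2 and 1 mM NAD+ (final), 20 nM enzyme, Tris-HCl pH 8 with Tween 20, after 15 min compound preincubation at room temperature. Fluorescence change, last versus first of five reads.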
Starred values were filed as active, the others as inactive; ? = inconclusive. % is scaled to controls: 0 for no effect and ±100 for the full control effect; potency is read from the fitted curve at half-maximal effect.

The opening two entries, ahead of the listing:
Structure | HPGD block
COc1cccc(N(C(=O)c2cccs2)c2nc3ccccc3s2)c1 | ?
Cc1cc2nnc(SCCCCN3C(=O)c4ccccc4C3=O)n2c2ccccc12 | -21%

The whole of this part (from the top)
Structure | HPGD block
COc1cccc(N(C(=O)c2cccs2)c2nc3ccccc3s2)c1 | ?
Cc1cc2nnc(SCCCCN3C(=O)c4ccccc4C3=O)n2c2ccccc12 | -21%
O=C(Nc1ccc(/C=C/c2nc3ccccc3o2)cc1)c1ccc(F)cc1 | ?
Nc1nc(N2CCCCC2)nc(N(c2ccccc2)c2ccccc2)n1 | -5%
Cc1cc(=O)[nH]c(N2CCN(C(c3ccccc3)c3ccccc3)CC2)n1 | -5%
Cc1ccccc1OCC(=O)N/N=C1\SCC(=O)N1Cc1ccccc1 | -19%
O=C(Nc1ccc2c(c1)OCCO2)C1CCC1 | -26%
O=C(NNC(=S)Nc1ccccc1)c1ccco1 | -15%
CSc1ccccc1NC(=O)c1cnc2n(c1=O)CCS2 | -18%
CCCCN1C(=O)C2NN=C(C(=O)OCC)C2C1=O (stereo not given) | -17%
COc1ccc(-c2cnc(SCC(=O)Nc3nc(C(C)(C)C)cs3)n2Cc2ccco2)cc1 | -11%
O=C(CSc1nnc(-c2ccco2)o1)NC1CC2CCC1C2 (stereo not given) | -17%
COc1ccc(-c2nc3c(c(=O)[nH]c(=O)n3Cc3ccccc3)n2Cc2ccccc2)cc1 | ?
CCN(CC)CC(=O)Nc1nc(-c2ccc(Cl)cc2)cs1 | -5%
CCc1cccc2c(C#N)cn(CCOc3ccccc3OC)c12 | 0%
CC(C)COC(=O)OCN1C(=O)CN(CCN2CC(=O)N(COC(=O)OCC(C)C)C(=O)C2)CC1=O | -2%
CCN1CCN(c2cc(-c3ccccc3)nc3cc(-c4cccc(F)c4)nn23)CC1 | ?
COc1ccccc1NC1=NC2(CCCC2)N=C(N)N1 | -4%
N#Cc1c(NC(=S)NC(=O)c2ccccc2)sc2c1CCN(CCc1ccccc1)C2 | -18%
N#Cc1nc(-c2ccco2)oc1N1CCN(c2cccc(Cl)c2)CC1 | ?

(next part)
Structure | HPGD block
Cc1ccccc1NC(=S)/C(=C(\[O-])c1ccc(C)c([N+](=O)[O-])c1)[n+]1ccccc1 | -2%
Clc1ccc(N2CCN(c3ncnc4c3oc3ccccc34)CC2)cc1 | ?
COc1ccc(N=Nc2[nH]c3ccc(C)cc3c2O)cc1 | -12%
COc1ccc(NC(=O)/C(C#N)=C/C=C/c2ccco2)cc1 | -8%
C=CCSc1nnc(NC(=O)COc2ccc3ccccc3c2)s1 | -13%
CC/C(=C\C(=O)c1cccnc1)Nc1ccc(C)c(C)c1 | -6%
CC(C)(C)C1=Nn2c(nnc2-c2ccco2)SC1 | -25%
CC(Sc1ccccc1)C(=O)Nc1ccccc1C(=O)N1CCOCC1 (stereo not given) | -4%
Cc1cnc(C(=O)Nc2ccccc2-c2ccc(C)o2)cn1 | -10%
CCOC(=O)/C(C#N)=C/c1cc(C)n(-c2ccc(Br)cc2)c1C | -8%
CC(=O)NS(=O)(=O)c1ccc(NC(=S)NC(=O)c2ccco2)cc1 | -17%
CCCc1cc(C(=O)NCc2cccs2)no1 | -22%
Cn1c(SCC(=O)N2CCOCC2)nnc1-c1cccc(NC(=O)c2ccccc2F)c1 | -15%
Cc1ccc(C(=O)Oc2ccc(C(=O)COC(=O)c3cnccn3)cc2)cc1 | -14%
O=C(c1ccc2c(c1)OCCO2)N1CCCCC1 | 0.13µM*
O=C1OC2(c3ccc(O)cc3Oc3cc(O)ccc32)c2ccccc21 | -21%
CC[N+]1(CC)CC2=Cc3c(ccc4ccccc34)CC2C1 (stereo not given) | -26%
CC(C)(C)c1ccccc1OCCOCCSc1ncccn1 | -18%
Nc1nonc1-c1noc(-c2ccc(Br)o2)n1 | -7%
O=C(/C=C/c1cccc([N+](=O)[O-])c1)NC1CC2CCC1C2 (stereo not given) | -26%

Next structures follow:
Structure | HPGD block
NC(=O)c1nn(-c2ccccc2)nc1NC(=O)CSc1nnnn1-c1ccc(Cl)cc1 | -27%
COc1cc(CNCc2ccccn2)ccc1OCC(=O)NC(C)(C)C | -7%
Cc1cc(C(F)(F)F)nc(SCC(=O)NC2=NC(=O)C(C)S2)n1 (stereo not given) | -27%
CCCCn1c(/C=N/Nc2nc3ccccc3[nH]2)nc2ccccc21 | -2%
COc1ccc(CN2CCN(c3ccccn3)CC2)cc1OCc1ccccc1 | -7%
CCOC(=O)C1=C(C)OC(N)=C(C#N)C1c1cc(F)ccc1F (stereo not given) | -10%
NS(=O)(=O)c1ccc(CCNC(=O)Nc2ccc(Cl)c(Cl)c2)cc1 | -13%
CC(c1ccco1)N(C(=O)c1ccccc1NS(=O)(=O)c1ccc(Cl)c([N+](=O)[O-])c1)c1ccccn1 (stereo not given) | -2%
O=C(Nc1nnc(-c2ccc(Cl)cc2)o1)NC1CCCCC1 | -8%
Cn1cc([N+](=O)[O-])c(C(=O)Nc2ccc(Br)cn2)n1 | -10%
CC(C)(C)n1nnnc1C(c1cccs1)N1CCN(Cc2ccccc2)CC1 (stereo not given) | -12%
CC1CCc2c(sc(Nc3nc4c(F)cccc4s3)c2C(N)=O)C1 (stereo not given) | ?
COc1ccc(CN2CCN(S(=O)(=O)c3ccc(C)cc3)CC2)cc1Br | -7%
CC(C)c1onc(C(=O)N2C(C)CCCC2C)c1[N+](=O)[O-] (stereo not given) | -18%
Cc1nc2ccccc2c(=O)n1NC(=O)c1ccco1 | -21%
COC(=O)[C@@]1(Cc2ccccc2)[C@H]2c3cc(C(=O)N(C)C)n(CCF)c3C[C@H]2CN1C(=O)c1ccccc1 | -3%
Cc1ccc(SCCCn2cncn2)cc1 | -12%
CCn1c(SCC(=O)Nc2ccc3c(c2)OCCO3)nnc1-c1ccco1 | -3%
C=CCSc1nnc2c(n1)OC(c1ccccn1)N(C(C)=O)c1ccccc1-2 (stereo not given) | -3%
COc1ccc(N2CCN(C(CNC(=O)OCc3ccccc3)c3ccco3)CC2)cc1 (stereo not given) | -10%

Additional results:
Structure | HPGD block
O=C(CSc1nnc(-c2ccc(O)cc2)n1Cc1ccco1)c1cccs1 | ?
CC1CN(S(=O)(=O)c2cccc(C(=O)NN3CCN(C)CC3)c2)CC(C)O1 (stereo not given) | -1%
C=C(C)CNC(=S)/N=c1\scc(C)n1CC | -15%
COc1ccc(N2CCN(C(c3cc4ccc(C)cc4[nH]c3=O)c3nnnn3C3CCCC3)CC2)cc1 (stereo not given) | -21%
O=Cc1nc(-c2ccccc2Cl)n2ccccc12 | ?
CC1CCCC(C)N1C(=O)COc1ccc(-c2nnco2)cc1 (stereo not given) | -9%
Cc1ccccc1NC(=O)COC(=O)/C=C/c1cn(-c2ccccc2)nc1-c1cccnc1 | ?
CCOc1ccc(C(=O)c2cccs2)cc1 | 16µM*
COc1ccc(CCNC(=O)c2ccc(=O)[nH]n2)cc1OC | -16%
C=CCNC(=O)COC(=O)COc1ccc(Cl)cc1C | 1%
Cc1ccc(CSc2nc3c(cc2C#N)CCC3)cc1 | -2%
N#Cc1ccc(NC(=O)CCc2ccc(S(=O)(=O)N3CCOCC3)cc2)cc1 | -13%
N/C(=N/OCc1cccc([N+](=O)[O-])c1)c1nonc1N | -4%
CC(=O)NC(NC(C)=O)c1ccc(N(C)C)cc1 | -7%
Cc1noc(C)c1C(=O)Nc1sc2c(c1C(N)=O)CCC2 | ?
Cc1c(C(=O)OCCN2CCCCC2)oc2ccccc12 | -2%
COc1ccc(CN(CC2CCCO2)C(=O)CN2C(=O)C(C)Oc3ccc(C)cc32)cc1OC (stereo not given) | -4%
COc1cc(S(=O)(=O)N2CCN(C)CC2)c(OC)cc1Br | -7%
CCOc1ccccc1NC(=O)C1CCN(S(=O)(=O)c2cccc3cccnc23)CC1 | -13%
COc1cc(C2Nc3cccc4cccc(c34)N2)cc(OC)c1O | ?

Some of the entries so far, as labelled records.
> COc1ccccc1NC1=NC2(CCCC2)N=C(N)N1
  HPGD block: -4%

> N#Cc1c(NC(=S)NC(=O)c2ccccc2)sc2c1CCN(CCc1ccccc1)C2
  HPGD block: -18%

> N#Cc1nc(-c2ccco2)oc1N1CCN(c2cccc(Cl)c2)CC1
  HPGD block: ?

> Cc1ccccc1NC(=S)/C(=C(\[O-])c1ccc(C)c([N+](=O)[O-])c1)[n+]1ccccc1
  HPGD block: -2%

Further results
compound	HPGD block
O=C(NC(=S)Nc1ccc(S(=O)(=O)N2CCCC2)cc1)C1CCC1	3%
Cc1nn(-c2ccccc2)c(Cl)c1C1C(C#N)=C(N)Oc2n[nH]c(C)c21 (stereo not given)	3%
COC(=O)CNC(=O)C(Cc1c[nH]c2ccccc12)NC(=O)OC(C)(C)C (stereo not given)	-8%
COc1cc(OC)c(C(=O)OC(C)C(=O)Nc2cc(C(F)(F)F)ccc2Cl)cc1OC (stereo not given)	-18%
Cc1ccc(OCC(=O)Nn2c(C)nc3ccccc3c2=O)c(C(C)C)c1	-18%
O=C(Nc1ccc(Cl)cc1)Nc1nnc(SCc2ccc(Cl)cc2)s1	-3%
Cc1cc(NC(=O)c2cc(-c3ccc(C)s3)nc3ccccc23)no1	?
COc1cc(C2CC(=O)c3c([nH]c(C(=O)OCCOC(C)C)c3C)C2)cc(OC)c1OC (stereo not given)	-5%
O=C1Nc2ccccc2C1(O)Cc1ccncc1 (stereo not given)	-10%
O=C1C2CCCN2C(c2ccc(F)cc2)N1c1nccs1 (stereo not given)	-2%

Continuation:
compound	HPGD block
CC(=O)c1ccc(NS(=O)(=O)Cc2ccc(Cl)cc2)cc1	-11%
CCOC(=O)c1sc(N(Cc2ccccc2)C(=O)CSc2ncn[nH]2)nc1C	-26%
CN1CCN(C(=O)Nc2cccc3ccccc23)CC1	-24%
CC(/C=N/NC(=O)c1nn(C)c(C)c1Br)=C\c1ccccc1	-16%
CCNC(=S)NN(c1ccccc1)c1ccccc1	-16%
Cn1c(=O)c2c(nc(NCCCN3CCOCC3)n2Cc2ccc(Cl)cc2)n(C)c1=O	-8%
Cc1nn(CCCC(=O)NCc2ccccc2)c(C)c1[N+](=O)[O-]	-5%
Cc1cccnc1NC(=O)/C=C/c1ccc2c(c1)OCO2	?
O=C(Nc1nc(-c2ccccn2)cs1)c1ccc(Cl)s1	-21%
COCCn1c(SCc2csc(-c3ccccc3)n2)nc2ccccc21	-3%

Following part.
compound	HPGD block
O=C(CSc1nnc2c3c4c(sc3ncn12)CCCC4)NCc1ccco1	-11%
Cc1cccc(CNc2cc(-c3cccc(C#N)c3)ncn2)c1	?
COC(=O)c1ccc(NC(=O)c2ccc(C)cc2)o1	-12%
O=c1oc2c(CN3CCCCC3)c(O)ccc2cc1-c1nc2ccccc2[nH]1	?
COc1ccc(Cn2c(-c3ccc(Cl)cc3)c[n+]3ccccc23)cc1	1%
Cc1ccccc1N(CC(=O)N/N=C/c1ccc(F)cc1)C(=O)c1ccccc1	-11%
CCN(CC(=O)NC1CCS(=O)(=O)C1)S(=O)(=O)c1ccc(C)cc1C (stereo not given)	3%
Cc1c(NC(=S)NC(=O)c2ccco2)c(=O)n(-c2ccccc2)n1C	-3%
CCC(CC)C(=O)Nc1cc(C(=O)NCCc2ccccc2)ccc1Cl	-1%
CCOc1ccc(NCc2nnc(SCC(=O)Nc3cc(C)on3)n2-c2ccc(OC)cc2)cc1	-1%

(more compounds)
compound	HPGD block
Cc1ccc2nc(-c3ccccc3)cn2c1	?
Cc1ccc(NC(=S)NNC(=O)CSc2nc3ccccc3c(=O)n2-c2ccc(C)cc2)cc1	-24%
O=C(Nc1cccnc1)Nc1ccccc1Cl	-14%
CCC(=O)N/N=C(\C)CC(=O)Nc1ccccc1-c1ccccc1	-15%
CC(C)(C)c1ccc(/C=C/C(=O)N2CCN(c3ncccn3)CC2)cc1	-17%
Cn1c(-c2ccccc2)c[n+]2c1-c1ccccc1C2	?
CCCNC(=O)CS(=O)(=O)Cc1nc(-c2cccc(OC)c2)oc1C	-8%
COc1cc(OC)cc(N(C(=O)C2COc3ccccc3O2)C(C(=O)NC2CCCCC2)c2ccc(O)cc2)c1 (stereo not given)	-9%
O=S(=O)(c1cccc(NC(=S)Nc2ccc(Br)cc2Cl)c1)N1CCOCC1	-29%
Cc1c(Cc2ccc3c(c2)OCO3)sc(NC(=O)C(C)(C)C)c1C#N	-22%

Continued:
compound	HPGD block
CCCCN(CC)C(=O)c1n[nH]c(=O)c2ccccc12	-9%
O=C(N1CCOCC1)n1cnc2ccccc21	-9%
Clc1cccc(Oc2cnns2)c1Cl	-28%
CC(=O)Nc1ccc(NS(=O)(=O)c2ccc(Cl)c(C(=O)O)c2)cc1	-8%
Clc1ccc(Cl)c(-c2nn3c(COc4ccccc4)nnc3s2)c1	10µM*
Cc1ccccc1Cc1c(C)nc2c(C(=O)NCc3ccco3)cnn2c1C	?
CCOC(=O)CNC(=O)C1c2ccccc2C(=O)N(c2ccc(OC)cc2)C1c1ccc(OC)cc1 (stereo not given)	-15%
Cc1cc2c3c(c1)C1(SCC(=O)N1c1ccc(F)cc1)C(=O)N3C(C)(C)CC2C (stereo not given)	-8%
COc1ccc(OC)c(-n2cnc3cc(C(=O)O)ccc32)c1	16µM*
COC(=O)C1=CN(CC2CCCO2)C=C(C(=O)OC)C1c1ccsc1 (stereo not given)	?

Some of the entries so far, field by field.
> CC(=O)Nc1ccc(NS(=O)(=O)c2ccc(Cl)c(C(=O)O)c2)cc1
  HPGD block: -8%

> Clc1ccc(Cl)c(-c2nn3c(COc4ccccc4)nnc3s2)c1
  HPGD block: 10µM*

> Cc1ccccc1Cc1c(C)nc2c(C(=O)NCc3ccco3)cnn2c1C
  HPGD block: ?

> CCOC(=O)CNC(=O)C1c2ccccc2C(=O)N(c2ccc(OC)cc2)C1c1ccc(OC)cc1 (stereo not given)
  HPGD block: -15%

Assay outcomes from PubChem BioAssay.

Not all compounds are listed. The share of hits here may be higher or lower than overall.
